Assay outcomes: PubChem BioAssay, National Center for Advancing Translational Sciences (NCATS)
TDP1 block = TDP1 (human) enzyme inhibition; Q9NUW8; hit rate 0.28% among 350,000; Potency, µM (series often up to 130 µM), inactives show top-dose activity change, negative = inhibition, hits mostly inhibitors; recombinant TDP1, AlphaScreen DNA substrate cleavage; note: nearly all actives have a fitted effect of over 40% in size
Target sequence (Q9NUW8 whole entry, looked up): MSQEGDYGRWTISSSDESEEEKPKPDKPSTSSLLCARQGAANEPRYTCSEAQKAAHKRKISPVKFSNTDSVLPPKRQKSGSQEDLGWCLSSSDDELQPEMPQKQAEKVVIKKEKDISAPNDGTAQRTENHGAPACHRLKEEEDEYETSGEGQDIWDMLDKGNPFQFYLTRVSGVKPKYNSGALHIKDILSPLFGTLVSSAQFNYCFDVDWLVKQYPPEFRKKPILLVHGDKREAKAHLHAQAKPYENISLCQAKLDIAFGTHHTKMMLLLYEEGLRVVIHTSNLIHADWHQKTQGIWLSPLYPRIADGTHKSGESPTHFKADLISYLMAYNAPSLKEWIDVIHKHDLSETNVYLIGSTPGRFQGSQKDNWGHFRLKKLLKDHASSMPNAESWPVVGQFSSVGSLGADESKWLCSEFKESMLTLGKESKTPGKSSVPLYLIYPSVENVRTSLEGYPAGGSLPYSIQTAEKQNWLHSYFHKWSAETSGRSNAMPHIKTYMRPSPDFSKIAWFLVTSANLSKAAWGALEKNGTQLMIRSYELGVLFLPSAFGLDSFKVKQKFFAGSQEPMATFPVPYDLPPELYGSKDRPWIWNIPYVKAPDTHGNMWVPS
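Recombinant human Tdp1 (E. coli-expressed, 1 nM final) preincubated with compounds 15 min at room temperature, then 5'-biotin/3'-phosphotyrosine-FITC DNA substrate (15 nM final) added for 5 min. AlphaScreen beads (10 ug/ml final) added 10 min; cleavage lowers signal.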
N370S GC = inhibitors or activators of N370S glucocerebrosidase for Gaucher disease. P04062. N370S GC spleen homogenate, 4MU-glucoside fluorescence. Potency, µM (series often up to 59.4 µM), for inactives: at the highest dose activity change, negative = inhibition, actives largely listed as inhibitors. hit rate 0.092% among 330,000. AID 2101;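 note: 0% = full enzyme activity and -100% = no enzyme basal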
* marks the source's active call; other numbers are inactive results; ? = inconclusive; / = no result given; [ ] = remark or other dose. Calls come from the whole dose curve; as a rule, active = well fitted curve in the direction sought with a large enough effect; inconclusive = small, poorly fitted or top-dose-only effect, or another doubt; inactive = no such curve, though single readings can be large; an effect the other way counts as inactive or inconclusive. Unless noted, % is set by controls: 0 for no effect and ±100 for the full control effect; potency is the fitted concentration of half-maximal effect. An excerpt; most or all hits stand in other tables.

TDP1 block	N370S GC	molecule
7.9%	?	COc1cc2c(cc1NC(=O)COC(=O)[C@@H](NC(=O)c1ccccc1)C(C)C)oc1ccccc12
-2.4%	2.8%	O=C(NCc1ccccc1)NC1CCS(=O)(=O)C1 (centres undefined)
2.3%	0.9%	Cc1ccc(C)c(NC(=O)C(=O)NCc2ccccn2)c1
-3.0%	-4.5%	O=C1CC(c2ccccc2)CC(O)=C1C=NCCN1CCNCC1 (centres undefined)
/	-4.1%	COc1ccc(CCN2CCCC(CN(C)Cc3cccc(OC)c3)C2)cc1 (centres undefined)
-6.2%	-4.7%	O=C(NCCn1cccn1)c1ccc(OC2CCN(C(=O)C3CC3)CC2)cc1
5.0%	-6.7%	Cc1cc(SCCC(=O)O)nc2ccccc12
5.4%	?	O=c1c2ccccc2c(C=NCCCN2CCOCC2)c(O)n1Cc1ccc2c(c1)OCO2
0.4%	/	c1cc(CCCc2ccncc2)ccn1
/	-10.3%	c1ccc(NC2=NCCN2CC2CCCC2)cc1

Some of these compounds in order of the TDP1 block value, ascending:
Compound	TDP1 block	N370S GC
O=C(NCCn1cccn1)c1ccc(OC2CCN(C(=O)C3CC3)CC2)cc1	-6.2%	-4.7%
O=C1CC(c2ccccc2)CC(O)=C1C=NCCN1CCNCC1 (centres undefined)	-3.0%	-4.5%
O=c1c2ccccc2c(C=NCCCN2CCOCC2)c(O)n1Cc1ccc2c(c1)OCO2	5.4%	?

Continuation:
TDP1 block	N370S GC	molecule
1.1%	2.9%	O=C(NCc1ccc(Cl)cc1)c1noc2c1CCCCC2
/	1.8%	NC(=O)c1sc2cc(C(F)(F)F)cnc2c1-c1ccccc1
9.6%	-6.4%	Cc1[nH]nc(-c2ccc(O)cc2O)c1-c1ccc(Cl)cc1
/	-0.5%	COc1ccccc1C(=O)Nc1ncc2c(n1)CC(c1ccco1)CC2=O (centres undefined)
6.2%	2.1%	Fc1ccccc1Cn1nnc2c(NCCc3ccccn3)ncnc21
-2.5%	-18.9%	Cc1ccc(C(=O)CNc2nc3c(c(=O)[nH]c(=O)n3C)n2Cc2ccccc2)cc1
-3.1%	4.5%	CC(C)CCN1CC(C(=O)NCc2ccccc2)CC1=O (centres undefined)
8.3%	-0.2%	Cc1ncoc1C(=O)N1CCc2c([nH]c3ccccc23)C1c1ccccc1F (centres undefined)
0.7%[56.1 µM]	4.6%	CCNS(=O)(=O)c1ccc(C)c(-n2cnnn2)c1C
1.3%	-2.5%	O=C(CSC(=S)N1CCOCC1)Nc1ncc2c(n1)CC(c1ccco1)CC2=O (centres undefined)
0.0%	-23.3%	COc1ccc(S(=O)(=O)N2CCOCC2)cc1C(=O)Nc1nc2ccccc2s1
5.1%	7.8%	CC(=O)N1c2ccc(S(=O)(=O)N3CCC(C(=O)Nc4ccccn4)CC3)cc2CC1C (centres undefined)
-4.6%[56.1 µM]	/	COc1ccc(C2CC(c3ccncc3)=NN2c2ccc(S(N)(=O)=O)cc2)cc1 (centres undefined)
1.0%	-3.2%	COc1ccc(CN(CC(=O)NC2CCCC2)C(=O)c2onc(C(N)=O)c2N)cc1
5.7%	-25.9%	C/C(=N\NC(=O)CSc1nc(C)cc(C)n1)c1ccc([N+](=O)[O-])cc1
2.6%	4.7%	CN(Cc1ccccc1)C(=C(Cl)Cl)C(=C1NCCN1)[N+](=O)[O-]
4.7%	5.0%	CC(C)(C)c1ccc(C(=O)Nc2ccc([N+](=O)[O-])cn2)cc1
4.1%	-8.9%	c1ccc(-c2nc(NCCCN3CCOCC3)c3ccccc3n2)cc1
1.3%	1.1%	O=C(NCC1CCCO1)c1ccc(CS(=O)(=O)c2ccc(Br)cc2)o1 (centres undefined)
-1.0%	-19.0%	Cc1ccccc1C(=O)Nc1ccccn1
/	2.3%	O=[N+]([O-])c1cc(S(=O)(=O)O)cc([N+](=O)[O-])c1NN(c1ccccc1)c1ccccc1
-5.1%	0.4%	COc1cc(OC)c(C(=O)OCC(=O)NCCc2ccccc2)cc1OC
0.6%	1.0%	O=C(NCCCn1ccnc1)c1c(F)cccc1F
3.3%	-1.0%	O=C(c1cccc(S(=O)(=O)N2CCCC2)c1)N1CCCC(C(F)(F)F)C1 (centres undefined)
7.1%	14.5%	O=c1c2c([nH]c3ccccc13)CCCC2
-2.0%	-2.4%	COc1ccccc1OCCC(=O)OCCN1C(=O)c2ccccc2C1=O
5.4%	-4.9%	Cc1cccc(C)c1NC(=O)CCCN1C(=O)C(c2ccccc2)Oc2cccnc21 (centres undefined)
-4.7%	13.1%	COC(=O)c1ccc(COc2nc(C)cc(C)c2C#N)o1
3.4%	-13.3%	Cc1cc(Cl)ccc1N=C1N=C(N)c2ccccc21
-1.1%	4.4%	CCOC(=O)c1cc2c(c(CSc3nc4ccccc4c(=O)n3Cc3ccco3)c1)OCOC2

4 of these compounds, reformatted.
O=c1c2c([nH]c3ccccc13)CCCC2
  TDP1 block = 7.1% | N370S GC = 14.5%
COc1ccccc1OCCC(=O)OCCN1C(=O)c2ccccc2C1=O
  TDP1 block = -2.0% | N370S GC = -2.4%
Cc1cccc(C)c1NC(=O)CCCN1C(=O)C(c2ccccc2)Oc2cccnc21 (centres undefined)
  TDP1 block = 5.4% | N370S GC = -4.9%
COC(=O)c1ccc(COc2nc(C)cc(C)c2C#N)o1
  TDP1 block = -4.7% | N370S GC = 13.1%

Additional results
TDP1 block	N370S GC	molecule
3.1%	-12.3%	CN(C)S(=O)(=O)c1ccc(C(=O)Nc2ccc(F)cc2F)cc1
0.8%	1.1%	COc1ccc(CCNC(=O)CSc2nnc(CNC(=O)c3cc(OC)c(OC)c(OC)c3)o2)cc1OC
5.1%	-6.9%	CCO[C@H]1OC(C(=O)NCc2ccccc2)=C[C@@H](c2ccccc2)[C@@H]1CCCO
-3.8%[56.1 µM]	-5.4%[89.1 µM]	COc1ccc(C2CC(=O)Oc3c(C(C)C)ccc(C)c32)cc1 (centres undefined)
1.3%	-4.9%	Cn1c(C(=O)Nc2ccc3c(c2)OCCO3)cc2c(=O)n(C)c3ccccc3c21
5.9%	-14.7%	COc1cccc(OC)c1C(=O)Nc1nc2ccc(S(C)(=O)=O)cc2s1
0.5%	/	CC(C)Cn1nc(C(=O)NCc2ccccc2CN2CCCC2)c2ccccc2c1=O
5.5%	1.5%	C=CCn1c(C(C)(C)C)nc2ccccc21
-2.1%	-10.3%	C=CCc1c(C)nn(CC(=O)O)c1-c1ccccc1
-2.2%	4.5%	COC(=O)c1sccc1NC(=O)c1cc(OC)cc(OC)c1
5.1%	-4.0%	CC(=O)NC(Cc1ccc(O)cc1)C(=O)NN (centres undefined)
-1.0%	7.3%	O=C(CN1C(=O)c2ccccc2C1=O)Nc1ccccc1F
2.3%	1.5%	COC(=O)Cc1c(C)c2ccc(OCC(=O)N3CCCC(C)C3)c(C)c2oc1=O (centres undefined)
8.2%	-15.4%	Cc1cc(C(=O)OCn2nnc3ccccc3c2=O)c(C)n1-c1ccccc1
2.0%	0.6%	NS(=O)(=O)c1cccnc1Nc1cccc(C(F)(F)F)c1
3.6%	-2.0%	CCC(=O)N1c2ccc(S(=O)(=O)NC3CCCCC3)cc2CC1C (centres undefined)
/	-4.1%	COCCN(C(=O)COC(=O)CCc1ccccc1OC)c1c(N)n(Cc2ccccc2)c(=O)[nH]c1=O
3.7%	-13.3%	CN1CCN(Cc2nc3cc(NC(=O)COc4ccc([N+](=O)[O-])cc4)ccc3n2C)CC1
2.8%	2.6%	O=C(O)CCCCCNc1nc(=S)[nH]c2ccccc12
5.4%	-5.4%	CCCCOc1ccc(C(=O)NCC2(c3ccc(OC)cc3)CCOCC2)cc1
-0.7%	-0.9%	Cc1ccc(S(=O)(=O)N2CCN(C(=O)c3cc(S(=O)(=O)N(C)C)ccc3N3CCCC3)CC2)cc1
1.2%	-1.7%	CNC(=S)Nc1cccc(C(=O)OC)c1
5.5%	3.4%	O=C1C(Nc2ccccc2)=CC(c2ccc(O)cc2)N1c1ccccc1 (centres undefined)
/	-18.8%	Cc1cc(OCC(O)CN2CCc3ccccc3C2)ccc1Cl (centres undefined)
-1.2%	21.5%	CC1=CN2C(=NC(=O)CC2(C)C(=O)N(CC(=O)NC2CCCC2)c2cc(C)cc(C)c2)C=C1 (centres undefined)
/	22.6%	CCCCNc1ncnc2sc3c(c12)CCN(CCC)C3
3.4%	-4.1%	O=C(CN(c1ccccn1)S(=O)(=O)c1ccccc1)N/N=C/c1cccc([N+](=O)[O-])c1
-0.2%	/	CC(C)c1nc(SCC(=O)Nc2cccc3ccccc23)n[nH]1
7.7%	?	C[C@@H]1OC(Nc2ccc(N=Nc3ccccc3)cc2)[C@H](O)[C@H](O)[C@H]1O (some centres undefined)
7.9%	?	N=c1c(S(=O)(=O)c2ccc(F)cc2)cc2c(=O)n3ccccc3nc2n1CC1CCCO1 (centres undefined)
2.6%	-5.4%	COc1ccc(NC2CCCN(C(=O)CCCN3CCCCC3=O)C2)cc1 (centres undefined)
-0.4%	/	COCCN(CC(=O)Nc1cccc(C)c1C)C(=O)C1(c2ccccc2)CC1
1.5%	/	COc1ccccc1CCNC(=O)c1cccc(S(=O)(=O)N2CCc3ccccc3C2)c1
/	7.9%	NC(=O)c1nsc(C(=O)N(CC(=O)NC2CCCCC2)c2cccc(F)c2)c1N
4.6%	-1.7%	CCCC1=[N+](CC(C)=O)CCn2c(C)ccc21
6.9%	18.2%	CCOC(=O)C1=C(C)OC(N)=C(C#N)C1c1cc2c(cc1[N+](=O)[O-])OCO2 (centres undefined)
9.7%	-1.5%	Oc1cc2ccccc2cc1-c1n[nH]c(=S)n1Cc1ccco1
1.0%	4.6%	COc1ccc(OC)c(S(=O)(=O)NC2CCCCC2)c1
-8.2%	8.3%	O=C(C/C=N\OCc1ccc([N+](=O)[O-])cc1)Nc1ccccc1
/	-13.9%	COc1cccc(CNC(=O)C(=O)NCCC2CCCCN2S(=O)(=O)c2ccccc2)c1 (centres undefined)
8.4%	5.1%	Cc1cccc(N2CCN(S(=O)(=O)c3c(C)[nH]c(C)c3C(=O)N3CCCCC3)CC2)c1C
1.3%[0.505 µM]	-0.3%	Cc1ccc(C)c(S(=O)(=O)N2CCN(C(=O)CN3C(=O)C4CC=CCC4C3=O)CC2)c1 (centres undefined)
4.8%	3.2%	CCOC(=O)C1CCN(C(=O)c2cccnc2Cl)CC1
6.2%	1.6%	CSC1=NCCN1C(=O)c1ccc(S(=O)(=O)N2CCCC2)cc1
4.6%	-1.2%	COc1ccccc1N1CCN(CCCNC(=O)C2CCCN(c3ncnc4c3nc3n4CCCCC3)C2)CC1 (centres undefined)
6.9%	3.8%	Cc1cc(=O)oc(C)c1C(=O)Nc1cnc2ccccc2c1
9.2%	3.5%	Cc1cc(C)c2nc(NNC(=O)c3ccc(S(=O)(=O)N4CCCCC4)cc3)sc2c1
12.7%[0.0935 µM]	-6.8%	CC(Sc1nnc(CNC(=O)c2ccco2)n1C)C(=O)Nc1nccs1 (centres undefined)
1.0%	7.5%	CSc1nc2sc3c(c2c(=O)n1C)CCCC3
1.2%	7.8%	CCOc1ccccc1N1CCN(C(=O)CC(C)(C)C)CC1

Other results.
TDP1 block	N370S GC	molecule
/	0.4%	COc1ccc(C(=O)NC2CCN(Cc3c(F)cccc3Cl)CC2)cc1OC
2.5%	-4.2%	CC1(c2ccc(OC(F)F)cc2)NC(=O)N(CC(=O)Nc2cccc(S(N)(=O)=O)c2)C1=O (centres undefined)
2.8%	-13.1%	CCOC(=O)c1sc(NC(=O)CCc2ccccc2)nc1C
-10.2%	/	CC(C)(C)N(Cc1ccccc1)C(=O)COC(=O)C1CCCCC1
-1.8%	/	O=C(NCc1ccc(F)cc1)c1ccc(S(=O)(=O)N2CCCCC2)cc1
/	-4.8%	C=CCNC(=O)CN1CCN(Cc2ccc3c(c2)OCO3)CC1
/	0.3%	CCN1C(=O)c2ccccc2S(=O)(=O)c2ccc(C(=O)NCC(OC)OC)cc21
3.4%	2.0%	COc1cccc(CNC(=O)COC(=O)CCS(=O)(=O)c2ccc(C)cc2)c1
-4.4%	-12.1%	CC(C)c1ccccc1NC(=O)CCCC(=O)O
9.5%	2.9%	O=C(Nc1nc(-c2ccccn2)cs1)c1ncc(Cl)c(Cl)c1Cl
1.3%	/	CC(=O)c1ccc(NC(=O)CN2CCN(S(=O)(=O)c3ccc4ccccc4c3)CC2)cc1
1.2%	0.0%	O=C1C2CCCN2C(=O)N1CCN1CCN(c2ccccc2)CC1 (centres undefined)
1.1%	8.2%	Cc1ccccc1-n1nc(C(=O)O)cc1-c1ccccc1
-8.4%	4.8%	O=C1CCCC(=O)N1c1ccc(O)cc1
/	-1.6%	CC1(C)C(=O)Nc2ccccc2N1C(=O)CSc1nnc2ccccn12
/	-4.6%	O=C(CS(=O)(=O)c1ccccc1)Nc1nccs1
-4.9%	5.3%	CCOC(=O)C1=C(C)NC(SC)=NC1c1ccc(OC)cc1 (centres undefined)
/	2.2%	N#CCSc1nc(-c2ccccc2)nc2ccc(F)cc12
-5.1%	7.1%	CC1=NN(C(=S)Nc2ccccc2)C(C)(C)C1
5.3%	-2.4%	Cc1nnc2sc(SCc3ccc(Cl)cc3)nn2c1=O
4.1%	-5.6%	CCOc1ccc(CCNC(=O)COC(=O)/C=C/c2ccco2)cc1OCC
7.2%	-13.3%	Oc1c(/C=N/c2ncn[nH]2)ccc2ccccc12
0.4%	0.9%	CCCc1nnc(SCC(=O)NC2CC2)n1CC
1.2%	14.1%	O=C(O)c1cccc(NC(CNS(=O)(=O)c2ccc(Cl)cc2)c2ccccc2)c1 (centres undefined)
3.6%	-1.8%	O=C(COC(=O)c1cn(-c2ccccc2)nc1-c1cccnc1)NC1CC1
